# High-throughput results from PubChem BioAssay.
# KCNQ2 inh: KCNQ2 potassium channel inhibitors, primary screen, cell-based, CHO-K1, FluxOR thallium flux, B-score (AID 2156) | 1.1% of 310,000 active | B-score at 10 µM | 20 min; hits give low values; only compounds with negative scores are shown here; some inactives read as strong as hits | Potassium voltage-gated channel subfamily KQT member 2 (Rattus norvegicus), O88943;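 active = fluorescence ratio B-score at most minus 3 library SDs, with starting brightness B-score within 2 library SDs, cut at about -5.5 in these data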
# Target sequence (O88943 whole entry, looked up): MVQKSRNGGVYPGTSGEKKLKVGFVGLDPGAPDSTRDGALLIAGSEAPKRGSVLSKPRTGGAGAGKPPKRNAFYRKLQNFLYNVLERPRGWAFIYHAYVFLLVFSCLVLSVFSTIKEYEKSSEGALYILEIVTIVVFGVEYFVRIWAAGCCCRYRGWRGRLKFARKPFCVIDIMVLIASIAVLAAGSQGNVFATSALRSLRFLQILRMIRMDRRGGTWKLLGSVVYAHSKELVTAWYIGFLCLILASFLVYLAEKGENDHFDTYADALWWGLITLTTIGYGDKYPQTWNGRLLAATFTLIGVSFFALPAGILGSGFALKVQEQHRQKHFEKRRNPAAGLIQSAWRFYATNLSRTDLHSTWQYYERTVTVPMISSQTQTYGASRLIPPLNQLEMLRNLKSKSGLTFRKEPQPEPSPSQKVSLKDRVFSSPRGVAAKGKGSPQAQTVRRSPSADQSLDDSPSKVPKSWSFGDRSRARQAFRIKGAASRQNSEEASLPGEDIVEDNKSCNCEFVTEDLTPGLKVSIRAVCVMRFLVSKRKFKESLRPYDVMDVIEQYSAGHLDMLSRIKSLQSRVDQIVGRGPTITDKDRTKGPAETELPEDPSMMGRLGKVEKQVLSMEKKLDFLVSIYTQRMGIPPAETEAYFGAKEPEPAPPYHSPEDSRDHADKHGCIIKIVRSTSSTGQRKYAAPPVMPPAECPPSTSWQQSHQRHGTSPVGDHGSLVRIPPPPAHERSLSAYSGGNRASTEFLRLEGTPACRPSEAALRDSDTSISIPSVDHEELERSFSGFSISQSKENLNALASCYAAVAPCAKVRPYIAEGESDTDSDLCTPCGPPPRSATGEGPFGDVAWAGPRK
# KCNQ2 inh baseline: second read-out of KCNQ2 inh, no call of its own (marks repeat the call); B-score; measured here: initial fluorescence intensity artifact check;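 brightness before thallium and not channel activity; 0 = typical well and far values either way flag optical interference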
# Active calls of the source: *; i = inactive. A portion of the library. The share of hits here may be higher or lower than overall.
# Every second line gives: KCNQ2 inh | KCNQ2 inh baseline
> Cc1ccccc1-c1nc(CN2CCC(C(=O)N3CCN(c4ccccn4)CC3)CC2)c(C)o1
    i | -1.91
> COc1ccccc1NC(=O)C1CC(=O)OC1c1ccccc1 (configuration not stated)
    i | 1.18
> COc1ccc(S(=O)(=O)N2CCC(C(=O)NC3CCCCC3)CC2)cc1C
    i | 0.14
> C/C(=N\NC(=O)c1cc(C)[nH]n1)c1cccs1
    i | -1.11
> COc1ccc(CN2CCCC(C(=O)c3cccc(C(F)(F)F)c3)C2)cc1O (configuration not stated)
    i | -0.16
> O=C(O)CSc1nnc(-c2cccs2)n1-c1ccc(Cl)cc1
    i | -0.85
> COc1cccc(C(=O)NCc2ccc3c(c2)cc(C)n3C)c1
    i | -1.81
> Cc1ccc(N2CCN(/N=C/c3sccc3C)CC2)cc1
    i | -0.11
> Clc1ccc(Cn2ccc3ccccc32)cn1
    i | 0.73
> CCN(CCCNS(=O)(=O)c1cc(-c2cc(C)no2)ccc1C)Cc1ccccc1
    i | 2.32
> CCCC(=O)Nc1ccc(Cl)c(NC(=S)NC(=O)c2ccco2)c1
    i | 1.07
> CSc1ncccc1C(=O)OCC(=O)N(CC(C)C)c1c(N)n(Cc2ccccc2)c(=O)[nH]c1=O
    i | 1.93
> CCCOc1ccc(S(=O)(=O)N2C(=O)CC(=O)N(Cc3ccc(OCC)cc3)C2=O)cc1
    i | -0.75
> COc1cccc(-c2nnn(C/C(N)=N/O)n2)c1
    i | -0.01
> O=C(/C=C/c1ccco1)NC(=S)Nc1ccc(Cl)cn1
    i | 1.73
> CC1C(=O)N2CCCc3cc(NC(=O)C4CCCCC4)cc1c32 (configuration not stated)
    i | -0.36
> CC(=O)N1CCN(CC(=O)Nc2c(Cl)cc(Cl)cc2Cl)CC1
    i | -0.1
> COc1cccc(OC)c1C(=O)OCC(=O)Nc1ccc(OC(F)(F)F)cc1
    i | 1.94
> CSc1ccccc1NC(=O)c1onc(C)c1Cl
    i | -1.51
> COc1ccc(Br)cc1C(=O)NCc1cccnc1
    i | 0.66
> CN(C)CC(CCC(CN(C)C)C(O)(c1ccccc1)c1ccccc1)C(O)(c1ccccc1)c1ccccc1 (configuration not stated)
    i | 0.03
> CN1C(C)(C)CC(NC(=O)c2ccco2)CC1(C)C
    i | 0.78
> CCCC(=O)N1CCC(Cc2ccccc2)CC1
    i | -0.78
> Cc1ccc(CCC(=O)Nc2ccc(Br)cc2)o1
    i | 3
> Cc1ccc(CNC(=S)NC2CCC(C(C)(C)C)CC2)cc1 (configuration not stated)
    -6.86* | 1.29*
> O=C(CCc1ccc(S(=O)(=O)N2CCOCC2)cc1)NCCc1ccccn1
    i | 1.18
> COc1cccc(NC(=O)CN2CCSc3ccccc32)c1
    i | -0.61
> CCOc1ccc(NC(=O)c2ccc(CSc3nnc(C)s3)cc2)cc1
    i | 0.54
> O=C(CN1CCC(C(=O)c2cccc(Cl)c2)CC1)Nc1ccc(C(=O)O)cc1
    i | -0.22
> O=C(CSc1nc(-c2ccccc2)cc(C(F)(F)F)n1)N1CCOCC1
    i | 0.58
> CN(C)C(=S)NC(=NCc1ccc([N+](=O)[O-])cc1)c1ccccc1
    i | 3.41
> Cc1ccc(NC(=O)c2cccc(OCc3c(C)noc3C)c2)cc1
    i | -0.02
> Cc1ccccc1-c1nc(CS(=O)CC(=O)NCCCN(C)c2ccccc2)c(C)o1 (configuration not stated)
    i | 1.09
> Cc1ccc(CC(=O)NCCS(=O)c2ccc(C)cc2)cc1 (configuration not stated)
    i | -0.42
> CCOC(=O)C1CCN(C(=O)C(=O)Nc2ccc3nc4n(c(=O)c3c2)CCCCC4)CC1
    i | 0.77
> Cc1ccc(/C=C/C(=O)N(Cc2cccs2)C2CCS(=O)(=O)C2)cc1 (configuration not stated)
    i | -1.03
> Cc1ncc(N=Nc2ccccc2)c(-c2ccccc2)n1
    i | 0.05
> O=[N+]([O-])c1cc(/C=N/N2CCOCC2)cs1
    i | -0.61
> CC(C)C[C@@H](CSc1ccccc1)N1CCN(CCc2ccccc2)CCC1=O
    i | -1.59
> C/C(=N\NS(=O)(=O)c1ccc([N+](=O)[O-])cc1)c1c[nH]c2ccccc12
    i | -2.26
> O=C(Nc1ccc(Cl)cn1)C1CCN(c2ncnc3c2nc2n3CCCCC2)CC1
    i | 1.36
> CC(=O)c1ccc(N2CCN(C(=O)C3CCN(S(=O)(=O)c4ccc5c(c4)CC(C)N5C(=O)C4CC4)CC3)CC2)cc1 (configuration not stated)
    i | -0.06
> Cc1c(C(=O)Nc2ccc3c4c(cccc24)CC3)cccc1[N+](=O)[O-]
    i | -1.61
> Cc1cc(=O)n(CCO)c(O)c1C#N
    i | 0.92
> COc1ccc(CC(=O)Nc2nn(C)c3nc4c(C)cccc4cc23)cc1
    i | 0.23
> Cc1c(C(=O)N2CCN(c3ccccc3F)CC2)sc2nc(-c3ccccc3)cn12
    i | 1.82
> CCOc1ccccc1N1C(=O)c2cccnc2C1=O
    i | -0.12
> c1ccc(Cc2nc3ccccc3[nH]2)cc1
    i | 0.55
> O=C1CN=C(Nc2ccc(Cl)cc2)N1c1ccccc1
    i | 0.23
> Cc1c(C)n(C)c2ccc(C(=O)N3CCN(c4ccccc4)CC3)cc12
    i | -0.98
> Cc1cc2nc3c(=O)[nH]c(=S)[nH]c3nc2cc1NC(=O)C(F)(F)F
    i | 20.4
> CC(C)OC(=O)CN1CCN(c2ccc(Cl)cc2)CC1
    i | -0.32
> CCOC(=O)N1CCN(C(=O)CSCc2ccc(Cl)cc2)CC1
    i | 2.99
> c1ccc(-c2cc(-c3ccccc3)n3ncnc3n2)cc1
    i | 0.39
> COc1cc(NC(=O)C2CCCCC2)c(OC)cc1NC(=O)CCC(=O)NCc1ccco1
    i | 0.42
> O=C(c1ccc(Cl)cc1)N1CCC(O)(CSc2ccc(Cl)cc2)CC1
    i | -0.33
> CCOC(=O)c1ccccc1N=Cc1c(O)c2ccccc2oc1=O
    i | -0.14
> CCOc1ccc(NS(=O)(=O)c2ccc(C(=O)NCc3ccncc3)cc2)cc1
    i | 0.01
> CNc1nc(C)cc(C)c1S(=O)(=O)c1ccc(C)cc1
    i | 0.28
> Cc1ccc(N2CC(C(=O)NCC3CCCO3)CC2=O)cc1Cl (configuration not stated)
    i | 2.27

# Four compounds already listed, ordered by count of non-hydrogen atoms, ascending:
# Every second line gives: KCNQ2 inh | KCNQ2 inh baseline
> c1ccc(Cc2nc3ccccc3[nH]2)cc1
    i | 0.55
> CC(C)OC(=O)CN1CCN(c2ccc(Cl)cc2)CC1
    i | -0.32
> Cc1ccc(N2CC(C(=O)NCC3CCCO3)CC2=O)cc1Cl (configuration not stated)
    i | 2.27
> Cc1c(C(=O)N2CCN(c3ccccc3F)CC2)sc2nc(-c3ccccc3)cn12
    i | 1.82

# More records follow:
# Every second line gives: KCNQ2 inh | KCNQ2 inh baseline
> O=C(c1cc(C2CC2)on1)N1CCCC(N2CCN(c3cccc(C(F)(F)F)c3)CC2)C1 (configuration not stated)
    i | -0.77
> CCCCc1nc2sc3c(=O)[nH]cnc3c2c2c1CCCC2
    i | 2.86
> O=C(CN1CCN(S(=O)(=O)c2ccccc2)CC1)NCCc1ccccc1
    i | 1.76
> S=C(Nc1ccccc1Cl)N1CCN(Cc2ccccc2)CC1
    i | 2.09
> O=C(C1COc2ccccc2O1)N1CCN(c2nc3ccccc3s2)CC1 (configuration not stated)
    i | 0.28
> CC1(C)CC(=O)c2cc(OCC(=O)N3CCN(c4ccccc4F)CC3)ccc2O1
    i | 0.39
> Cc1ccc(NC(=S)NC2CCCC2)cc1
    i | 0.06
> COc1ccc(-[n+]2c(C)cc(/C=C3\Sc4ccccc4N3C)cc2C)cc1
    i | 78.3
> O=C(Nc1ccc(C(=O)O)cc1)/C(=C\C=C\c1ccccc1)NC(=O)c1ccccc1Br
    i | -0.57
> O=C(Cn1ccc([N+](=O)[O-])n1)c1ccccc1
    i | 1.14
> COc1ccc(NC(=O)CN(C)C(=O)c2cccc(S(=O)(=O)Nc3ccc(OC)cc3)c2)cc1
    i | -2.14
> CCOc1ccccc1OCCOc1ccccc1CC
    i | 0.01
> C=C(C)Cn1c(CNC(C)=O)nc2ccccc21
    i | 0.41
> CC1(CCC#N)N=C(SCCC#N)N(c2ccccc2)C1=O (configuration not stated)
    i | 2.56
> O=C(NCCN1CCN(S(=O)(=O)c2ccc(F)cc2)CC1)C(=O)NCc1ccccc1
    i | -0.31
> CCOc1cccc(C(=O)Nc2ccccc2C(=O)N2CCOCC2)c1
    i | 1.03
> O=C(c1ccccc1SCc1ccccc1)N1CCOCC1
    i | 0.88
> CC(C)C(OC(=O)c1ccco1)C(=O)NCc1ccccc1 (configuration not stated)
    i | -0.63
> COc1ccc(CN2CCNC(=O)C2CC(=O)N(C)Cc2nccn2C)cc1OC (configuration not stated)
    i | -0.01
> COc1cccc(C2=Nn3c(nnc3-c3ccccc3O)SC2)c1
    i | -1.9
> COc1ccc(C(=O)CCc2ccccc2)c(O)c1
    i | 0.24
> Cc1nc(SCC(=O)N2CCOCC2)c2ccsc2n1
    i | -1.11
> O=c1c2cnn(-c3ccccc3)c2nc(-c2cccs2)n1-c1ccc(Cl)cc1
    i | -1.35
> COc1ccc(CC(=O)O/N=C(\N)c2ccccn2)cc1OC
    i | 0.77
> COc1ccccc1Cn1nnc2c(=O)[nH]c(C3CCN(C(=O)c4ccccc4Cl)CC3)nc21
    i | 1.34
> CCN(CC)CCn1c(N)nc2ccccc21
    i | 0.46
> CN1CCN(C(=O)c2cc3nc(-c4ccc(F)cc4)cc(C(F)(F)F)n3n2)CC1
    i | -0.08
> Cc1ccc(Cl)cc1NC(=O)COC(=O)c1ccccc1O
    i | 0.46
> O=c1c2ccccc2ncn1CCCSc1ccccc1
    i | 2.23
> COc1ccccc1NC(=O)c1cc(=O)[nH]c2ccccc12
    i | 0.77
> CCN(Cc1cnn(C)c1)Cc1nc(Cc2ccccc2Cl)no1
    i | -0.6
> O=S(=O)(c1ccc2ccccc2c1)n1cnc2ccccc21
    i | -0.58
> CC(=O)Nc1cc(S(=O)(=O)Nc2ccccc2C)c(C)cc1C
    i | 1.22
> CC1CCc2c(C(=O)Nc3ccccn3)csc2C1 (configuration not stated)
    i | -0.23
> CC(=O)Nc1ccc(SCC(=O)O)cc1
    i | -0.01
> Cc1oc(C(C)(C)C)cc1C(=O)Nc1ccc2c(c1)OCO2
    i | 0.05
> Cc1nc(C/C(=N\Nc2ccccc2)c2ccc(O)cc2O)cs1
    i | 1.71
> Cc1ccc(CS(=O)(=O)c2cn(CC(=O)N3CCOCC3)c3ccccc23)cc1
    i | 0.03
> COc1ccc(S(=O)(=O)NC2CC(=O)N(c3ccccc3)C2)cc1C (configuration not stated)
    i | -0.52
> C/C(=N\NC(=O)c1ccc(NS(=O)(=O)c2cccs2)cc1)c1cccs1
    i | -2.77
> CC12CS(=O)(=O)CC1SC(=S)N2Cc1ccccc1 (configuration not stated)
    i | 0.68
> Cc1cc(Nc2ccccc2Cl)n2nnnc2n1
    i | -0.46
> O=C(CCn1nnc2ccccc2c1=O)NCC1CCC(C(=O)O)CC1 (configuration not stated)
    i | 0.47
> COc1cc(OC)cc(C(=O)N[C@H](C(=O)OCn2nnc3ccccc3c2=O)C(C)C)c1
    i | -0.53
> Nc1nc(N)nc(COc2ccccc2)n1
    i | 3.33
> Cc1[nH]c2ccccc2c1C(=O)C(=O)N1CCN(c2ccccc2Cl)CC1
    i | -1.87
> CCN(CC)c1ccc(S(=O)(=O)N2CCOCC2)cc1NC(=O)c1cc(=O)c2ccccc2o1
    i | -0.53
> Cc1ccccc1C(=O)N1CCC(C(N)=O)CC1
    i | 0.52
> O=C(/C=C/c1ccc(Cl)cc1)Nn1c(-c2cccs2)nc2ccccc2c1=O
    i | -1.3
> CC(=O)Nc1ccc(S(=O)(=O)N[C@@H](C)C(=O)OCc2cc([N+](=O)[O-])cc3c2OCOC3)cc1
    i | 1.58
> Cc1ccccc1CN1CCc2cc([N+](=O)[O-])ccc21
    i | -0.05
> O=C(NCc1ccccc1)c1cc2ccc(O)cc2oc1=O
    i | -0.72
> CCOc1ccc(NC(=O)C2=C(C)NC(=S)NC2c2ccc(O)c(OC)c2)cc1 (configuration not stated)
    i | 0.45
> CCC(=O)N(C)CCc1cc2c(c(OC)c1/C=N/Nc1ccc(C(=O)O)cc1)OCO2
    i | 0.53
> C=CCn1c(=O)c2c(nc3n2CCN3c2cccc(Cl)c2C)n(C)c1=O
    i | 0.04
> Cc1nnc(SC(C)C(=O)Nc2ncc(Cl)cc2Cl)n1Cc1ccccc1 (configuration not stated)
    i | -0.6
> Cc1cc(C)c(S(=O)(=O)NCc2csc(C)n2)c(C)c1
    i | 0.63
> O=C(NCc1ccccc1F)C(=O)NCC1CCCN1S(=O)(=O)c1cccs1 (configuration not stated)
    i | -1.28
> Cc1ccc(C(C)C)c(OCCNC(=O)c2cncc(Br)c2)c1
    i | -0.35
> COc1ccc(CCNC(=O)CS(=O)Cc2nc(-c3ccccc3F)oc2C)cc1OC (configuration not stated)
    i | -0.03

# Next part.
# Every second line gives: KCNQ2 inh | KCNQ2 inh baseline
> CCN1CCN(c2nn3c(=O)c4ccccc4nc3c3ccccc23)CC1
    i | 0.23
> Cc1ccccc1CS(=O)(=O)Cc1ccc(C(=O)NCCCN2CCOCC2)o1
    i | -0.73
> COc1cc2c(cc1OC)C(c1cccc(Br)c1)NC(=O)C2 (configuration not stated)
    i | -0.45
> COc1ccc(S(=O)(=O)N2CCc3ccccc32)cc1C(=O)N(CC(C)C)C1CCS(=O)(=O)C1 (configuration not stated)
    i | -0.75
> CC1=NN(C(N)=S)C(=O)C1N=Nc1c(C)n(C)n(-c2ccccc2)c1=O (configuration not stated)
    i | 0.9
> O=C(Nc1ccccn1)c1cccc(S(=O)(=O)N2CCc3ccccc3C2)c1
    i | -0.25

# Ordered by the number under KCNQ2 inh baseline (highest first): some entries from above.
compound	KCNQ2 inh	KCNQ2 inh baseline
CC1=NN(C(N)=S)C(=O)C1N=Nc1c(C)n(C)n(-c2ccccc2)c1=O (configuration not stated)	i	0.9
CCN1CCN(c2nn3c(=O)c4ccccc4nc3c3ccccc23)CC1	i	0.23
COc1ccc(S(=O)(=O)N2CCc3ccccc32)cc1C(=O)N(CC(C)C)C1CCS(=O)(=O)C1 (configuration not stated)	i	-0.75
